Ecoli rRNA inh: selective bacterial rRNA inhibition in E. coli; E. coli WT GFP vs humanized-ribosome RFP mutants, fluorescence, 24 h; active compounds read low; DMSO median 0, no signal -100; hit rate 1.6% among 350,000; GFP signal change (wild-type ribosome), % (test concentration not listed);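 active means significant combined selectivity score with lowered wild-type GFP, culture density cut under 30%, mutant RFP and density less affected; inactive means any of these conditions unmet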; further: one replicate is shown; some compounds called inactive have numbers as strong as hits
Ecoli growth: blocks Escherichia coli growth; OD600, 23 h; active compounds read low; OD600 absorbance (concentration not given with the values); hit rate 0.21% among 330,000;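 active means OD600 absorbance below the run mean of sample wells minus 3.6 SD, in any replicate, cut at about 0.56 in these data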;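 further: stock transfer was 300 nL into about 60 µL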
AF4-AF9 inh: inhibitors of human MLL-AF4/AF9 interaction. P42568. AlphaScreen, biotin-AF4 peptide binding to FLAG-AF9. inhibition, % at 10 µM. hit rate 0.47% among 350,000;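 active means every replicate reaching a set inhibition limit, whatever the replicate mean, cut at about 25% in these data; inconclusive means mean inhibition reaches that limit but some replicates miss it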;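 further: 0% = plate neutral control median and 100% = total signal loss; the record names both 10 and 1 µM as test concentration; the first replicate is given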
Vif A3G: inhibitors of Vif binding to APOBEC3G peptide, primary screen, biochemical, TR-FRET, GST-Vif 1-94, biotin-A3G peptide, dose response retest (AID 1117319); inhibition, %; hits with a dose series show IC50 in µM; hit rate 0.57% among 260,000; TR-FRET GST-Vif / biotin-A3G peptide binding; higher % means a stronger effect; test concentration not given here; strong numbers were not always called active;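 active means above the screen mean plus three standard deviations and confirmed in dose response; inconclusive means results disagree or hit not tested in dose response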;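 further: Vif residues 1-94 fused to GST binding biotinylated APOBEC3G peptide 110-148; 0% = full assay without inhibitor and 100% = GST in place of GST-Vif; retest series ran down from 100 µM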
ALR inh: human ALR oxidase inhibition via reduced H2O2. P55789. purified ALR, DTT oxidation, H2O2 HRP-luminol luminescence. inhibition, % (concentration not given with the values). hit rate 3.8% among 290,000;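 active means mean and each replicate at 75% or more; inconclusive means only one of the two met; inactive means neither met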;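 further: stock transfer was 7.5 nL into about 7.5 µL; 0% = neutral wells and 100% = wells with inactivated enzyme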
Target sequence (P55789 whole entry, looked up): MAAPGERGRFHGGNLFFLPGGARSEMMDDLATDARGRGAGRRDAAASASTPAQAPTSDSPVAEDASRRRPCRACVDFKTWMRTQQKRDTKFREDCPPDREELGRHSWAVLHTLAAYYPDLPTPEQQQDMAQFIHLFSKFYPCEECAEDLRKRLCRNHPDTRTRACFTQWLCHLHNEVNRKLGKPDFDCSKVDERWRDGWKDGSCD
FGF22 binding: shifts melting point of recombinant human FGF22 | hit rate 1.5% among 340,000 | AID 651658 | recombinant FGF22 thermal shift, SYPRO orange fluorescence; percent of sucrose octasulfate shift, DMSO zero | Q9HCT0 | calls only at 9.99 µM;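 active means melting point raised past a set limit in the mean and every replicate; inconclusive means no clear call; three in four hits are not shown here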
Target sequence (Q9HCT0 whole entry, looked up): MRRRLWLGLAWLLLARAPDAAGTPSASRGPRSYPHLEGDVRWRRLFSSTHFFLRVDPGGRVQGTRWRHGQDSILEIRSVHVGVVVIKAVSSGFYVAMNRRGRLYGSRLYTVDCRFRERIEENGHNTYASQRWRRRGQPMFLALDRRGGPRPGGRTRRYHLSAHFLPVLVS
HNF4A DNA FP: change in binding of human HNF4 alpha to DNA; P41235; HNF4a-FITC DNA binding, fluorescence polarization, 1 h; activity change, % at 10 µM; hit rate 0.3% among 360,000; in the data active means activity change above about 30%, passing the limit was not always enough;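 further: controls were the assay level and a saturating level of protein; the project sought stronger binding though the title names inhibitors; some compounds called inactive have numbers as strong as hits; positive values seem to mean higher polarization but the record does not say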
Target sequence (P41235 whole entry, looked up): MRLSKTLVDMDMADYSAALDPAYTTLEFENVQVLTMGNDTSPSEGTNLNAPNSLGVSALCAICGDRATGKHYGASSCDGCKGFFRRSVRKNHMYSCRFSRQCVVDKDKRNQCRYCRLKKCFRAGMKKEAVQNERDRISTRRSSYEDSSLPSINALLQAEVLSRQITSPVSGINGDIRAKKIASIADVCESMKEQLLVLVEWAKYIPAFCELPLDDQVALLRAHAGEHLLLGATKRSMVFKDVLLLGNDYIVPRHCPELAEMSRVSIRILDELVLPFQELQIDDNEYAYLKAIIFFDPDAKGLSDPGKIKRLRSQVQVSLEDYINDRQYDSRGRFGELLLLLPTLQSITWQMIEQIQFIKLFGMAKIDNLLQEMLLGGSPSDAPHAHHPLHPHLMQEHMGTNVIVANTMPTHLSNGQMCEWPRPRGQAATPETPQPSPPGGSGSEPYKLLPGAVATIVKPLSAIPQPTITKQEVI
Ecoli rRNA inh OD600: further read-out of Ecoli rRNA inh, marked with its call; OD600 change, %; measured here: OD600 growth;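 optical density of the mix in the first replicate; 0 = DMSO median and -100 = no signal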
Ecoli rRNA inh RFP: second read-out of Ecoli rRNA inh, no call of its own (marks repeat the call); RFP signal change, %; measured here: RFP humanized mutant strains;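 first replicate; 0 = DMSO median and -100 = no signal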
* = called active by the depositor; i = inactive; ? = inconclusive; . = no result given. Not all compounds are listed; count on the stated rates, not on these rows.

SMILES	Ecoli rRNA inh	Ecoli rRNA inh OD600	Ecoli rRNA inh RFP	Ecoli growth	AF4-AF9 inh	Vif A3G	ALR inh	FGF22 binding	HNF4A DNA FP
COc1cc(Cn2c3ccc(NC(=O)NCc4ccc(F)cc4)cc3c(=O)n2C)ccc1F	-1	-32	17	.	-4.2	.	.	i	0.8
C/C(N)=C(/C#N)C(=O)COC(=O)Cc1coc2cc(C)ccc12	-9	3	5.1	0.71	4.8	-7%	-4	.	0.2
COc1ccc(/C=C2/SC(=S)NC2=O)cc1OCc1ccccc1	8	3	11	0.65	-9.5	-2%	-4	i	12
Cc1cccc(NC(=O)CSc2nc3c(oc4ccccc43)c(=O)n2-c2ccccc2)c1	1	6	0.9	0.67	-3.3	.	-4	i	1.4
CNC(=O)NC1CCCCc2sccc21 (centres undefined)	.	.	.	0.7	.	-1%	-3	.	2.3
CC(C)[C@H](NS(=O)(=O)c1ccc2c(c1)OCCO2)C(=O)OCC(=O)Nc1ccccc1	.	.	.	0.67	.	.	-5	.	-1.9
Cc1ccccc1C1NC(c2ccccc2C)C(C)C(=O)C1C (centres undefined)	-10	-33	4.2	0.66	-0.1	-2%	-11	i	-2.7
O=C(C1CCCN(S(=O)(=O)c2cccnc2)C1)N1CCN(c2ccccn2)CC1 (centres undefined)	-1	4	-0.8	0.77	-1.3	-2%	0	i	3.2
O=C(CSc1nnc(-c2ccccc2F)o1)NC(=O)Cc1ccccc1	3	5	-1.0	0.64	-1.1	.	.	i	-1.4
CC(=O)Nc1ccc(NC(=O)C2Cc3c(-c4cccc(C(C)=O)c4)ccnc3O2)cc1 (centres undefined)	-4	-5	11	.	-14	.	.	i	8.8
COc1cc(NS(=O)(=O)c2cccc3nsnc23)cc(OC)c1	.	.	.	0.65	.	8%	-6	.	1.3
COc1cccc(C=C(C#N)C(=O)c2ccccc2)c1	4	10	2.9	.	-3.0	.	.	i	3.7
C[C@H]1CN([C@@H](C)CO)S(=O)(=O)c2ccc(-c3cccc(C#N)c3)cc2O[C@@H]1CN(C)Cc1cccc(F)c1	-6	-7	1.4	.	-2.3	.	.	i	.
CC(C)NC(=O)Nc1ccc2c(c1)C(=O)N([C@@H](C)CO)C[C@@H](C)[C@@H](CN(C)Cc1ccc(Oc3ccccc3)cc1)O2	-3	-26	3.0	.	1.1	.	.	i	.
O=C(COC(=O)c1cccc(Br)c1)NCCc1ccc(F)cc1	-3	-13	0.7	0.67	1.2	.	-25	i	-0.2
O=C([C@H]1[C@H](CO)[C@H]2Cn3c(cccc3=O)[C@@H]1N2CCC(F)(F)F)N1CCCCC1	1	4	1.0	.	-0.2	.	.	i	.
Cn1cc(Br)c(C(=O)NC(=S)Nc2ccc(S(N)(=O)=O)cc2)n1	-14	-11	-2.6	0.69	-6.3	.	2	i	1.9
COc1cccc(NC(=O)N2C[C@H](O)COC[C@H]3O[C@@H](CC(=O)NCc4ccccc4F)CC[C@@H]32)c1	4	7	1.9	.	-0.4	.	.	i	.
C[C@H]1CN([C@@H](C)CO)C(=O)c2cccc(NC(=O)C3CC3)c2O[C@@H]1CN(C)Cc1ccc(C(F)(F)F)cc1	-5	-1	0.9	.	1.6	.	.	i	.
Cc1ccc(S(=O)(=O)N(C)C[C@H]2Oc3c(NC(=O)c4ccncc4)cccc3C(=O)N([C@H](C)CO)C[C@H]2C)cc1	-7	-4	-1.6	.	-3.8	.	.	i	.
Cc1noc(C)c1NC(=O)Nc1cccc2c1O[C@@H](CN(C)S(=O)(=O)c1cccs1)[C@@H](C)CN([C@H](C)CO)C2=O	-1	0	-2.4	.	1.4	.	.	i	.
C[C@@H]1CCCCO[C@H](CN(C)Cc2ccc(C(F)(F)F)cc2)[C@@H](C)CN([C@@H](C)CO)C(=O)c2cc(NC(=O)Nc3ccc(F)cc3)ccc2O1	-2	-3	1.4	.	1.3	.	.	i	.
CC(=O)[C@H]1[C@H](C#N)C[C@H]2[C@@H]3CC=C4C[C@@H](O)CC[C@]4(C)[C@H]3CC[C@@]21C	11	8	1.8	.	-11	25%	-13	i	2.8
COCCNC(=O)C(c1cccs1)N(C(=O)Cn1nnc2ccccc21)c1cccc(C)c1 (centres undefined)	.	.	.	0.76	.	?	-5	.	3.3
CC(C)CCNC(=O)CCCOc1ccccc1	.	.	.	0.81	.	?	-3	.	-0.6

Next compounds.
SMILES	Ecoli rRNA inh	Ecoli rRNA inh OD600	Ecoli rRNA inh RFP	Ecoli growth	AF4-AF9 inh	Vif A3G	ALR inh	FGF22 binding	HNF4A DNA FP
C[C@H]1CN([C@@H](C)CO)C(=O)c2cc(-c3ccccc3F)cnc2O[C@H]1CN(C)C(=O)c1ccccn1	0	3	-1.5	.	-2.3	.	.	i	.
CN1C(C(=O)Nc2ccc(OC(F)(F)F)cc2)=CC(c2ccco2)=NS1(=O)=O	-20	-56	19	0.64	15	.	-3	i	2.7
CCCCNS(=O)(=O)c1ccc2nc(SCC(=O)c3ccc(C#N)cc3)[nH]c2c1	.	.	.	0.78	.	11%	3	.	2.4
COc1ccc(N2C(=O)CC(NC34CC5CC(CC(C5)C3)C4)C2=O)c(OC)c1 (centres undefined)	.	.	.	0.67	.	8%	-4	.	-3.0
CCSc1nc2ccccc2n1S(=O)(=O)c1ccccc1	13	11	-1.5	0.74	-1.4	1%	-8	i	-0.8
CN1CCN(C(=S)Nc2cc([N+](=O)[O-])ccc2Cl)CC1	8	12	7.4	0.69	-9.1	.	-29	i	0.7
C[C@@H]1CN([C@H](C)CO)C(=O)Cc2cc(NS(C)(=O)=O)ccc2O[C@@H]1CN(C)C	0	8	0.0	.	-1.8	.	.	i	.
COc1ccc(C)cc1NC(=O)CSc1ccc(-c2cccnc2)nn1	-13	-19	-5.6	.	5.5	4%	3	i	1.6
CCOc1ccc(S(=O)(=O)N2CCN(C(=O)Cc3ccc(S(=O)(=O)N4CCOCC4)s3)CC2)cc1	16	17	2.2	0.61	1.7	-5%	-2	i	-2.5
COc1ccccc1NC(=O)/C(=C/c1cccs1)NC(=O)c1ccco1	6	11	-0.8	0.67	12	1%	16	i	-0.5
CCCCOc1ccc(NC(=O)CSc2cccc3cccnc23)cc1	1	-4	3.6	0.72	-3.0	.	-18	i	5.3
Cc1ccc(OCCCC(=O)NNC(=O)c2ccccn2)cc1	-50	-67	-15	0.67	-3.5	2%	-3	i	3.1
O=C(COC(=O)COc1ccccc1[N+](=O)[O-])Nc1ccc(S(=O)(=O)N2CCCCC2)cc1	.	.	.	0.68	.	27%	-8	.	0.3
O=C(N/N=C/c1cccs1)[C@H]1C[C@@H]1c1ccccc1	.	.	.	.	.	-4%	0	.	2.1
O=C(C[C@H]1CC[C@H]2[C@@H](COC[C@@H](O)CN2Cc2ccccc2)O1)NCCCN1CCOCC1	2	-2	1.3	.	-2.7	.	.	i	.
Cc1nn(Cc2cccc(C(=O)NC(C)c3ccc(C(C)(C)C)cc3)c2)c(C)c1[N+](=O)[O-] (centres undefined)	.	.	.	0.75	.	?	0	.	-5.2
CN(Cc1cc2ccccc2[nH]c1=O)S(=O)(=O)c1ccccc1	.	.	.	0.66	.	-7%	2	.	-0.9
Cc1nc(=O)c(-c2ccccc2)c(C)n1-c1cccc(C(=O)O)c1	.	.	.	0.71	.	4%	-5	.	-4.6
Cn1ncc(Br)c1NC(=O)c1cc(Cl)cc(Cl)c1	.	.	.	0.67	.	2%	.	.	5.2
COc1ccc(CNC(=O)C(OC(=O)c2ccco2)c2ccc(F)cc2)cc1 (centres undefined)	-7	0	4.2	.	-0.4	.	0	i	3.2
Nn1c(SC/C=C/c2ccccc2)nnc1-c1cccnc1	.	.	.	0.67	.	21%	2	.	4.7
CC(C)CNC(=O)c1ccc(COc2ccc(Cl)cc2Cl)o1	.	.	.	0.64	.	29%	11	.	-3.2
O=c1c(Cc2ccc(F)cc2)c(O)ccn1C1CCCCC1	.	.	.	0.67	.	-8%	18	.	-1.1
COc1ccc(-c2cc(C(=O)N3CC(C)CC(C)C3)c3ccccc3n2)cc1 (centres undefined)	-5	-2	2.1	0.72	-29	1%	-6	i	3.0
CCOc1ccc(NS(=O)(=O)c2c(C(=O)N3CCCCCC3)c(C)n(C)c2C)cc1	-2	-3	1.8	0.68	-1.4	.	-1	i	1.1

Further records:
SMILES	Ecoli rRNA inh	Ecoli rRNA inh OD600	Ecoli rRNA inh RFP	Ecoli growth	AF4-AF9 inh	Vif A3G	ALR inh	FGF22 binding	HNF4A DNA FP
Cc1ccc(-n2nc3c(=O)n(CCCC(=O)NCCc4ccccc4C)nc(C)c3c2C)cc1	2	-4	1.7	0.7	1.3	-6%	-28	i	1.8
Cc1cc(C)n2nc(C(=O)N/N=C/C=C/c3ccccc3)nc2n1	.	.	.	.	-5.3	-2%	0	i	-1.9
CCOC(=O)N1CCN(S(=O)(=O)N2CCCC(C(=O)NCc3ccc(OC)cc3OC)C2)CC1 (centres undefined)	-3	-2	0.0	0.7	-25	.	-6	i	-4.0
C=C[C@H]1C(O[C@@H]2O[C@H](CO)[C@@H](O)[C@H](O)[C@H]2O)OC=C2C(=O)N3CCc4cc(OC)c(O)cc4[C@H]3C[C@H]21 (some centres undefined)	2	1	0.8	0.71	-2.9	.	.	i	-5.5
COC1OC2COC(c3ccccc3)OC2C(O)C1NC(=O)c1ccccc1 (centres undefined)	19	18	-0.4	.	-3.1	.	.	i	0.7
CCc1[nH]nc(C(=O)N2CCCC(C(=O)c3cccc(C(F)(F)F)c3)C2)c1C (centres undefined)	-3	-6	-2.9	0.67	-14	.	5	i	-0.5
CCCCCCSc1ccc(-c2nc3ccc(C)cn3c2NC2CCCCC2)cc1	5	0	-3.1	0.71	3.3	.	.	i	6.0
Cc1cc(C)nc(NS(=O)(=O)c2ccc(NC(=S)NC(=O)C3CCCC3)cc2)n1	.	.	.	0.74	.	3%	14	.	0.8
Cc1noc(C)c1NC(=O)N(C)C[C@@H]1Oc2ccc(NC(=O)NC3CCCCC3)cc2CC(=O)N([C@@H](C)CO)C[C@H]1C	-1	-1	-1.2	.	-0.9	.	.	i	.
Cc1ccc(S(=O)(=O)Nc2ccc3c(c2)C(=O)N([C@H](C)CO)C[C@@H](C)[C@H](CN(C)CC2CC2)O3)cc1	1	7	-2.9	.	-1.8	.	.	i	.
N#Cc1nc(COc2ccccc2)oc1N1CCOCC1	-9	-3	-4.9	0.67	.	-3%	-7	.	2.5
COC(=O)CCS(=O)(=O)c1ccc(NC(C)=O)cc1	14	1	1.4	0.66	1.1	1%	-6	i	-2.6
CC(C)NC(=O)Nc1ccc2c(c1)C(=O)N([C@@H](C)CO)C[C@H](C)[C@H](CN(C)S(=O)(=O)c1ccccc1)OCCCC[C@@H](C)O2	-1	2	-2.1	.	-1.0	.	.	i	.
Cc1c(OCC(=O)C(C)(C)C)ccc2c3c(c(=O)oc12)CCCC3	3	-4	-2.6	0.74	-5.1	.	2	i	-0.8
COC(=O)/C(=C\C(=O)c1ccccc1)Nc1ccc(OC)cc1	-2	-12	1.5	.	15	1%	5	i	-1.3
C=C1c2cccc(OC)c2O[C@H](C(=O)OCC)[C@@H]1CCCCCC	.	.	.	0.72	.	-2%	.	.	3.3
COc1ccccc1-c1nnc(SCC(=O)N2CCOCC2)n1-c1ccccc1	.	.	.	0.74	.	6%	-10	.	-1.8
O=C(CSc1nc2ccccc2c(=O)n1Cc1ccco1)N1CCN(c2ccccc2)CC1	.	.	.	0.69	.	-3%	.	.	0.4

High-throughput results deposited in PubChem BioAssay by several laboratories.
